# Source: PubChem BioAssay
# Mtb betalactam = beta-lactam sensitization of Mtb H37Rv. hit rate 0.27% among 330,000. M. tuberculosis H37Rv growth with meropenem, percent inhibition; hits of this screen are not shown here. inhibition, % at 25 µM;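 active = about 74% or more and at least 40 points above the plate without the antibiotic, then above 30% in a dose series; inconclusive = first-round hits that could not be retested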;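 note: growth measured after seven days incubation then overnight dye step; 0% = bacteria only wells and 100% = bacteria with antibiotic; twin plates without the antibiotic show which effects depend on it; some results filed as inactive read as strong as hits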
# YopH PTP inh = blocks Yersinia enterocolitica YopH tyrosine phosphatase | fluorescence Ex485/Em525 | inhibition, %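 (about 10 µM by stock and volumes)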 | hit rate 0.16% among 140,000 | AID 898;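 active = inhibition of 50% or more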;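 note: controls were vehicle for no effect and minimum signal wells for full effect; inactives centre near -20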
# Arbovirus anti = blocks arbovirus infection | inhibition, % at 10 µM | hit rate 0.37% among 200,000 | arbovirus infection cell-based antiviral screen;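 active = inhibition from about 30%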;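 note: bluetongue infection of BSR cells; cell survival read as ATP light after 72 h; 0% = infected wells without compound and 100% = uninfected wells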
# RecA splice inh = Mtb RecA intein splicing inhibition; P9WHJ3; cell-free RecA intein splicing, fluorescence; inhibition, %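 (about 9 µM by stock and volumes)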; hit rate 0.75% among 290,000; in the data active = inhibition above about 30%; inconclusive = no clear call, values can overlap the other calls;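 note: 0% = vehicle wells and 100% = reference inhibitor control wells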
# Target sequence (P9WHJ3 whole entry, looked up, canonical isoform): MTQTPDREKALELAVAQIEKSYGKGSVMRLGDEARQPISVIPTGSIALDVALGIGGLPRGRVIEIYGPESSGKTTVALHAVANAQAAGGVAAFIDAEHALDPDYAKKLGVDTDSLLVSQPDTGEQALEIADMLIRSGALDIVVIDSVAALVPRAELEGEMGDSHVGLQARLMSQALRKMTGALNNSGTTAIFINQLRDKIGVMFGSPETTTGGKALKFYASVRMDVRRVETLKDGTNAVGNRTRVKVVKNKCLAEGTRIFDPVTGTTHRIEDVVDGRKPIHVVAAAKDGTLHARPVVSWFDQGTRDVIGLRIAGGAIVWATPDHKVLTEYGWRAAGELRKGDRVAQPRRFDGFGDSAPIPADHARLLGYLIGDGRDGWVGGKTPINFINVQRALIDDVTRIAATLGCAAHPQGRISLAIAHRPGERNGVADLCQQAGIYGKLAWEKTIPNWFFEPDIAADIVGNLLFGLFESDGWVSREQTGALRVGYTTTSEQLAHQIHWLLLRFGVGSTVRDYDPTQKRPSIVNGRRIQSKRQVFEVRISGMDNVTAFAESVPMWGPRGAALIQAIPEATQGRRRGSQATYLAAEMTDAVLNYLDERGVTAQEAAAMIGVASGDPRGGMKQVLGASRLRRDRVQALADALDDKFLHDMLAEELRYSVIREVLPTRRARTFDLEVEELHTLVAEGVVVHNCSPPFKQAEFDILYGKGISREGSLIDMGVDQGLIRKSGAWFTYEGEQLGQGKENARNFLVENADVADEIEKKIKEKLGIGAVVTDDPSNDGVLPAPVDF
# Mtb H37Rv = M. tuberculosis H37Rv growth inhibitors, H37Rv strain (AID 1626). M. tuberculosis H37Rv growth inhibition; higher % means a stronger effect. inhibition, % at 10 µM; hits with a dose series show IC50 in µM. hit rate 0.95% among 220,000;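 active = confirmed in a dose series; inconclusive = inhibition above 80% but not taken into the dose series; inactive = below 80% or under 30% at every dose of the series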;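 note: bacteria incubated seven days before Alamar blue readout; 0% = bacteria only wells and 100% = bacteria with antibiotic wells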
# Arbovirus anti repeat = also measured in Arbovirus anti; calls as there; inhibition, %; measured here: 10K subset replicate screen; many hits read low in the repeat;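 first of two repeat runs on a subset; 0% = infected and 100% = uninfected wells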
# * marks the source's active call; other numbers are inactive results; ? = inconclusive; . = not tested or not shown.
SMILES,Mtb betalactam,YopH PTP inh,Arbovirus anti,RecA splice inh,Mtb H37Rv,others
COc1ccc(S(=O)(=O)N(CC(=O)N/N=C/c2ccc(C(=O)O)cc2)Cc2ccccc2)cc1OC,-4,.,.,0.6,.,
Cn1c(=O)c2c(ncn2CC(COCc2ccc(Cl)cc2)OCc2ccc(Cl)cc2)n(C)c1=O (centres undefined),39,3,-2,2.0,-4%,
CC(=O)Nc1cccc(C(=O)OCC(=O)c2ccccc2Cl)c1,-2,.,0,-1.2,-4%,
Cc1ccccc1OCC(=O)NNC(=O)c1cc(S(=O)(=O)N2CCOCC2)ccc1N1CCCC1,2,.,.,-1.8,.,
CC(C)(C)c1ccc(-c2noc(CCC(=O)N3CCOCC3)n2)cc1,12,.,2,-1.9,6%,
O=c1[nH]c2cc3c(cc2cc1CN(CC1CCCO1)S(=O)(=O)c1ccc(Cl)cc1)OCCO3 (centres undefined),6,4,-8,5.6,5%,
CC(=O)Nc1cccc2c1C(=O)NC2=O,-7,-33,0,-0.6,5%,
COC(=O)c1ccc(NC(=O)C2CCCN(S(C)(=O)=O)C2)cc1 (centres undefined),-2,.,11,-0.1,4%,
CCOC(=O)C(NC(=O)NCc1ccccc1OC)(OCC)C(F)(F)F (centres undefined),1,-21,-3,-0.7,2%,
CCOC(=O)N1CCC(N2CC34C=CC(O3)C(C(=O)O)C4C2=O)CC1 (centres undefined),13,-14,2,-0.5,1%,
Nc1cc(=O)nc(SCC(=O)NCc2ccccc2)n1CCc1ccccc1,-7,-43,-3,-2.1,-4%,
COc1cc(CNc2ccc3[nH]c(=O)[nH]c3c2)ccc1OCc1ccccc1Cl,-1,.,.,-3.7,.,
Cn1c(=O)[nH]c(=O)c2c1nc(N1CCN(CCO)CC1)n2CCSc1nc2ccccc2s1,-3,-33,5,-0.3,2%,
CSc1sc(C(=O)NCC2CC2)c(-c2cccs2)c1C#N,-13,.,.,.,1%,
O=C(Oc1ccccc1-c1nnco1)c1ccccc1,27,-10,10,6.7,-1%,
Cc1cc(C)cc(OCC(=O)NC2CCCc3ccccc32)c1 (centres undefined),25,-27,0,4.5,21%,
COc1ccc(-c2[nH]c(-c3ccc(C)cc3)nc2SCC(=O)NC2CCCC2)cc1,55,-22,-18,0.5,27%,
O=C(COC(=O)c1cc(-c2ccccc2)nc2ccccc12)Nc1ccc2c(c1)OCO2,0,-10,-2,0.0,-7%,
Cc1ccc(Cn2ccc(O)c(Cc3ccccc3)c2=O)cc1,-8,.,-3,0.9,0%,
N#CC1=C(Nc2ccccc2)SC=C(c2ccc(Br)cc2)N=C1N1CCOCC1,-5,-38,-8,7.1,-3%,
COc1cc(/C=N\Nc2nc3ccccc3o2)cc(OC)c1OC,12,-6,-4,-3.0,-12%,
CC1CN(C(=S)NC(=O)C2CCCCC2)CC(C)O1 (centres undefined),4,-26,1,-4.2,-1%,
COc1cc(Br)cc(/C=C/c2ccc3cccc(O)c3n2)c1O,92,.,.,1.1,.,
CCOC(=O)c1cc2c(n(-c3ccccc3)c1=O)CC(C)(C)CC2=O,0,-18,5,-0.3,-5%,
Cc1ccc(C(=O)N(CN2CCCC2=O)c2ccccc2)cc1C,1,-50,1,2.9,-13%,
C=CCSc1nc2sc3c(c2c(=O)n1CC)CCc1ccccc1-3,79,-27,17,9.3,8%,
COc1ccc(C(C)=O)cc1CSc1nncn1-c1ccccc1,4,-29,-4,1.1,-7%,
Cc1cc(=O)[nH]c(SCc2nc3ccc([N+](=O)[O-])cc3[nH]2)n1,-3,-29,9,0.3,-5%,
COc1cc(C)c(S(=O)(=O)NCc2cccnc2)cc1C,-3,.,.,-0.4,.,
CC(C)COc1ccc(C(=O)Nc2ccc(NC(=O)c3ccco3)c(Cl)c2)cc1,5,9,-15,-0.4,1%,

# The last 3 entries of the section above open the next one:
SMILES,Mtb betalactam,YopH PTP inh,Arbovirus anti,RecA splice inh,Mtb H37Rv,others
Cc1cc(=O)[nH]c(SCc2nc3ccc([N+](=O)[O-])cc3[nH]2)n1,-3,-29,9,0.3,-5%,
COc1cc(C)c(S(=O)(=O)NCc2cccnc2)cc1C,-3,.,.,-0.4,.,
CC(C)COc1ccc(C(=O)Nc2ccc(NC(=O)c3ccco3)c(Cl)c2)cc1,5,9,-15,-0.4,1%,
CC(=O)c1cccc(N(CC(=O)Nc2cccnc2)S(C)(=O)=O)c1,1,-25,1,-0.3,-12%,
Nc1cccc(S(=O)(=O)Nc2ccc(SC(F)F)cc2)c1,7,.,.,0.5,11%,
Cc1nn(CC(=O)OCC(=O)Nc2c(C(C)C)cccc2C(C)C)c(C)c1[N+](=O)[O-],4,-31,2,-0.3,-2%,
Cc1ccc(NC(=O)c2cc(F)c(F)cc2Cl)nc1,-7,.,-9,-1.7,-2%,
CCOc1ccc(NC(=O)N2CCCC2C(=O)NCc2ccco2)cc1 (centres undefined),-10,.,.,0.1,.,
CCN1CCN(Cc2ccc(NC(=O)c3ccc(C)c(/C=C/c4cnc(Nc5cc(N6CCNCC6)nc(C)n5)cn4)c3)cc2C(F)(F)F)CC1,89,.,.,-157,.,
COc1cccc(C(=O)COc2ccc3c(C)c(Cc4ccccc4)c(=O)oc3c2C)c1,6,-17,-20,0.2,-7%,
Cc1cccc(-c2nc3sc(C)cc3c(=O)o2)c1,97,.,21,-1.4,17%,
Cc1c(NC(=S)N2CCN(c3ccc(F)cc3)CC2)c(=O)n(-c2ccccc2)n1C,3,.,1,-4.6,3%,
COc1ccc(-c2nn(-c3ccccc3)cc2/C=N/Nc2cccc(C(=O)O)c2)cc1,.,.,-2,.,12%,
CC(=O)c1sc2nc(C)c3c(c2c1N)CCCC3,-3,.,.,-49,3%,
Cc1cccc(-c2noc(CN(C(=O)/C=C/c3ccccc3Cl)C(C)C)n2)c1,2,7,-6,15,16%,
O=[N+]([O-])c1ccc(/C=C/c2ccncc2)cc1,9,.,.,-0.4,8%,
CC(CCc1ccccc1)NC(=O)CN(C)Cc1ccccc1F (centres undefined),4,.,10,0.1,4%,
Cc1ccc(-n2nc(CN3CCOCC3)c(-c3ccccc3)c2N)cc1Cl,11,-17,-4,0.8,8%,
C=CCSc1n[nH]c(-c2ccccc2)n1,-6,-39,5,4.2,6%,
COc1ccc(CCN2C(=O)CSC2=Nc2ccc(C)cc2C)cc1OC,-4,.,.,-1.2,6%,
CC(OC(=O)C1CCN(S(=O)(=O)c2ccccc2C(F)(F)F)CC1)C(=O)N(C)Cc1ccccc1 (centres undefined),-17,.,.,-0.1,.,
CC(C)(CN=C1NS(=O)(=O)c2ccccc21)CNC(=O)CN1C(=O)c2ccccc2C1=O,7,-32,1,-0.6,-5%,
Cc1ccccc1-n1c(=O)cc(N2CCN(C(=O)c3ccco3)CC2)[nH]c1=O,6,-10,-2,-1.6,1%,

# Quoted at random: 6 compounds from above, in no set order.
SMILES,Mtb betalactam,YopH PTP inh,Arbovirus anti,RecA splice inh,Mtb H37Rv,others
COc1ccc(CCN2C(=O)CSC2=Nc2ccc(C)cc2C)cc1OC,-4,.,.,-1.2,6%,
CC(=O)c1sc2nc(C)c3c(c2c1N)CCCC3,-3,.,.,-49,3%,
CC(CCc1ccccc1)NC(=O)CN(C)Cc1ccccc1F (centres undefined),4,.,10,0.1,4%,
CC(C)(CN=C1NS(=O)(=O)c2ccccc21)CNC(=O)CN1C(=O)c2ccccc2C1=O,7,-32,1,-0.6,-5%,
CC(OC(=O)C1CCN(S(=O)(=O)c2ccccc2C(F)(F)F)CC1)C(=O)N(C)Cc1ccccc1 (centres undefined),-17,.,.,-0.1,.,
Cc1cccc(-c2noc(CN(C(=O)/C=C/c3ccccc3Cl)C(C)C)n2)c1,2,7,-6,15,16%,

# Next section
SMILES,Mtb betalactam,YopH PTP inh,Arbovirus anti,RecA splice inh,Mtb H37Rv,others
Cc1ccccc1CN1CCCC(C(=O)Nc2ccccc2Oc2cccnc2)C1 (centres undefined),-13,.,.,2.3,.,
CCOC(=O)C1CCN(CC(O)COc2ccc(C(C)=O)cc2)CC1 (centres undefined),0,.,-3,.,-9%,Arbovirus anti repeat=-3
O=C(CS(=O)(=O)c1cn(Cc2ccccc2Cl)c2ccccc12)N1CCOCC1,-2,-26,15,-0.8,5%,Arbovirus anti repeat=-2
Cc1ncc(CN2CCC(C(=O)Nc3ccc(Oc4cccnc4)cc3)CC2)cn1,1,.,.,0.3,.,
CC1C(=O)NN=C1C(=O)N/N=C\C(Br)=C\c1ccccc1 (centres undefined),.,.,3,.,?,
NS(=O)(=O)c1ccc(CCNC(=O)C(=O)C2C(=O)Nc3ccccc32)cc1 (centres undefined),-7,.,.,-1.7,-4%,
Cn1c(=O)c2c(ncn2CCC(=O)N/N=C/c2ccccc2)n(C)c1=O,-3,.,.,-5.5,16%,
Cc1onc(-c2c(F)cccc2Cl)c1C(=O)N(C)CCc1ccccn1,8,.,.,0.5,.,
Cc1nnc(C)n1/N=C/c1ccc(-c2ccccc2Cl)o1,-5,.,.,2.3,.,
Cc1ccc(NC(=O)C(C)OC(=O)CCNS(=O)(=O)c2ccc(C)cc2)cc1 (centres undefined),-3,-22,5,-6.6,5%,
Cc1ccc(C(=O)CC(=O)c2cc(Cl)ccc2O)cc1,100,-28,-33,6.3,3.5µM*,
COC(=O)C1=C(C)N(c2ccccc2)/C(=C/c2ccco2)C1=O,2,.,.,0.2,4%,
Cc1ccc(S(=O)(=O)N2CCN(C(=O)c3ccccc3)C2)cc1[N+](=O)[O-],9,.,2,-1.7,-8%,
CCOc1ccc(C(=O)NCC(=O)OCC(=O)N2CCC(C)CC2)cc1,5,-25,-4,.,4%,
Fc1cc(F)c2nc(N3CCOCC3)sc2c1,2,-13,3,-1.0,-4%,
CCC(=O)Nc1sc(C(=O)OC)c(C)c1C(=O)OC,-2,-54,-6,0.3,-9%,
Cc1ccc(N2CCN(c3ccc(C)cc3)C(CC(=O)O)C2=O)cc1 (centres undefined),2,-37,19,7.4,-3%,
CCN(CC)S(=O)(=O)c1ccc(S(=O)(=O)N2CCCC2C(=O)O)cc1 (centres undefined),2,-25,3,.,3%,
COC(CNC(=O)c1cc(Sc2nnc(C)s2)nc2ccccc12)OC,-7,-19,-7,-1.0,-2%,
CCC1=C(OC(=O)N(CC)CC)N2C(=O)OC(=NCC(=O)OC)[C@]2(C)[C@H]2C1=CC[C@H]1C(=O)N(CC(=O)OC)C(=O)[C@H]12,-7,.,.,-2.7,-2%,
O=C(O)C1OC2OC3(CCCCC3)OC2C2OC3(CCCCC3)OC12 (centres undefined),-4,-26,13,-3.0,-1%,
COc1ccc(NC(=O)c2cc(C)no2)cc1Cl,57,.,.,0.3,.,
S=c1sc(SCCOc2ccccc2)nn1-c1ccccc1,10,-24,-3,5.8,16%,
CCN1C=C(Cc2cccs2)C2=C(C1)C(c1cccs1)C(C#N)=C(N)O2 (centres undefined),23,-16,-2,13,1%,
CCN(CC)CCOc1ccc2c(c1)C(=NO)c1cc(OCCN(CC)CC)ccc1-2,16,22,-41,0.4,6%,
CCN(CC)C(=O)Oc1c(Cl)cc(Cl)c2cccnc12,-2,.,6,-0.2,5%,
CCOc1ccc(CNC(=O)CCCOc2cc(=O)n(C)c3ccccc23)cc1,-2,14,-9,-3.6,-7%,
O=C(c1cccc([N+](=O)[O-])c1)C12CN3CN(CN(C3)C1)C2,-3,.,10,3.9,-2%,
Cc1cc(CNC(=O)COC(=O)c2ccc(Cl)c(N)c2)cc(C)c1O,-8,.,.,-3.8,.,
CCC(=O)NCCc1nc2cc(NC(=O)COc3ccccc3)ccc2n1C,2,.,.,-2.1,.,
CCNc1nc(NCC)nc(N/N=C/c2cc(OC)c(OC)c(OC)c2)n1,6,.,.,.,-3%,
COc1ccc(Cn2c(SCc3cc(C)ccc3C)nc3cc(OC)c(OC)cc3c2=N)cc1,100,-17,-32,4.1,2.6µM*,
CN(C)CCCNC(=O)c1cc(C(=O)C2CCCCC2)c[nH]1,-6,.,10,0.3,-6%,
CC(NS(=O)(=O)c1ccc2c(c1)oc(=O)n2C)c1ccccc1 (centres undefined),5,.,.,0.5,.,
O=C(Nc1ccc(Cl)cc1)c1csc(-c2ccncc2)n1,20,.,4,6.7,11%,
Cc1cccc(C=Nc2ccc3c4c(cccc24)CC3)c1O,0,-12,-1,-4.3,-3%,
CCN1C(=O)N(C)[C@@H](c2ccccc2)C(C(=O)OC)=C1C,0,.,.,1.9,-1%,
CCCCC(=O)NC1(C(F)(F)F)NC(=O)N(C)C1=O (centres undefined),4,.,.,-2.1,3%,
O=C(CCNc1cc(Cl)cc(Cl)c1)c1cccs1,98,-14,1,22,74%,
COc1cccc(C2=CC(=O)CCC2)c1OC,0,.,.,-1.0,-8%,
COc1ccc(C(=O)Nc2ccc(/C(C)=N/NC(=O)c3ccncc3)cc2)cc1,100,.,.,0.7,.,
CC(=O)Nc1sc(NC(=O)c2ccccc2)nc1-c1cccs1,-1,-29,0,-0.2,3%,

# Not all compounds are listed; count on the stated rates, not on these rows.
